RanGTP-Imp inh: disruptors of Ran-importin-beta complex formation – biochemical, FRET, CFP-Ran, YFP-importin-beta, homogeneous, primary screen; hit rate 1.1% among 300,000; cell-free CFP-Ran/YFP-importin-beta FRET ratio; inhibition, % (no concentration beside the values); AID 2216;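 active = most replicates above 15%; inconclusive = exactly half above 15%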;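 also: 0% = DMSO wells and 100% = Ran loaded with GDP instead of GTP; wells of about 40 µL received 100 nL stock; the first replicate is given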
T cruzi repl: T. cruzi replication inhibition; T. cruzi beta-gal in NIH3T3, luminescence, 90 h; inhibition, % (test concentration not listed); hit rate 1.4% among 300,000; AID 1885;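 active = mean inhibition across valid replicates above about 55%, limit read from the data; inconclusive = mean below that limit but half or more replicates reach it; inactive = mean below it, under half of replicates reach it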;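 also: signal also drops with host cell toxicity which is not excluded here; 0% = plate median of DMSO wells and 100% = zero luminescence signal; higher percent means less beta-gal luminescence so fewer parasites; stock transfer was 50 nL into about 50 µL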
Beta apoptosis: beta cell apoptosis inhibition | INS-1E cytokine-induced death, ATP luminescence, 48 h; percent of positive-control rescue, neutral wells zero | protection from apoptosis, % (no concentration beside the values) | hit rate 0.8% among 300,000 | AID 435005;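 active = all replicates at 75% or more, or half of them and the mean; inconclusive = half reach 75% but not the mean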;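 also: 0% = cytokine-treated negative control wells and 100% = positive control rescue; higher means more ATP so stronger rescue from cytokine killing; wells of about 40 µL received 100 nL stock; the first replicate is given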
Calb FLC: C. albicans growth modulation with fluconazole; growth inhibition, % (test concentration not listed); hit rate 0.57% among 300,000; C. albicans CaCi-2 (fluconazole-resistant clinical isolate) + fluconazole, Alamar Blue growth, 48 h;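 active = most replicates above 75%; inconclusive = exactly half above 75%; inactive = most below 75%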;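 also: all wells also contain fluconazole at 8 µg/ml as a sub-toxic cotreatment; 0% = median of DMSO wells and 100% = median of geldanamycin control wells; wells of about 8 µL received 7.5 nL stock; the first replicate is given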
LANA-H2A inh: blocks KSHV LANA binding to histone H2A/H2B; AID 2629; cell-free LANA-H2A/H2B peptide, fluorescence polarization; inhibition, % (test concentration not listed); Q9QR71; hit rate 0.6% among 320,000; in the data active = inhibition mostly above about 10%, no sharp cut-off; inactive = mostly below about 6.7%;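 also: stock transfer was 7.5 nL into about 10 µL; 0% = median of vehicle wells and 100% = median of positive control wells; one replicate is shown; the record names a cut of 25% in any replicate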
B2AR ag: human beta-2 adrenergic receptor agonism by FAP; Am2.2-beta2AR cells, FAP receptor internalization, flow cytometry; reference of the scale not given here; response, % (no concentration beside the values); hit rate 0.43% among 340,000; AID 504454;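 active = response above a set limit, near 3 SD of response in nonfluorescent compounds, cut at about 42% in these data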;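 also: stock transfer was 100 nL into about 11 µL; a reference agonist was the positive control; negative values mostly stem from fluorescent compounds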
Target sequence (P07550 whole entry, looked up): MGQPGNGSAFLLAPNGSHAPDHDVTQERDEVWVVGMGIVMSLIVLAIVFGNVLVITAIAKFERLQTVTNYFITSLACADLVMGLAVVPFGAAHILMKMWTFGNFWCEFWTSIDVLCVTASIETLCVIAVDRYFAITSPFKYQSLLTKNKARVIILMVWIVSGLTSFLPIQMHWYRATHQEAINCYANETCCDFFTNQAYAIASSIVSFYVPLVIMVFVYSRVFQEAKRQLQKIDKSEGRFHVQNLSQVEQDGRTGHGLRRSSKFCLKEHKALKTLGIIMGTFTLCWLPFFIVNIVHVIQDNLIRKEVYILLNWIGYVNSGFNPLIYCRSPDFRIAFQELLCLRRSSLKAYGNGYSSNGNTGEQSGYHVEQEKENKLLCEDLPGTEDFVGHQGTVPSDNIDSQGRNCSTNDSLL
UCH37 inh: human UCH37 deubiquitinating enzyme inhibition | Q9Y5K5 | purified proteasome/UCH37, Ub-AMC cleavage fluorescence | inhibition, % (concentration not given with the values) | hit rate 0.33% among 330,000 | AID 588478;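 active = mean of two replicates above 20%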;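 also: 0% = compound-free wells with enzyme and 100% = wells lacking proteasome; stock transfer was 100 nL into about 20 µL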
Target sequence (Q9Y5K5 whole entry, looked up): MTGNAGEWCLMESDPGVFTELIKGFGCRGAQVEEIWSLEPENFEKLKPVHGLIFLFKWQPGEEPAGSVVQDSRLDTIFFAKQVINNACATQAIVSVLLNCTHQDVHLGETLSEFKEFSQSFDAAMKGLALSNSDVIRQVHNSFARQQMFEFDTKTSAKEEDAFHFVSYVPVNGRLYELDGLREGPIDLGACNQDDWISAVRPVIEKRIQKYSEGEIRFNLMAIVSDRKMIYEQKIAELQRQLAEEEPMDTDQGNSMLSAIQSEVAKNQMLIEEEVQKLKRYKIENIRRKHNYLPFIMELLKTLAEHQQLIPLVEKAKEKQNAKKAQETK
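Assay system: Proteasome-bound UCH37. Buffer or medium: pH 7.4 Tris-HCl (50 mM) with ovalbumin, ATP-MgCl2, DTT. Incubation: 30 min preincubation with enzyme, 25 min cleavage at room temperature. Measured by: fluorescence, ex 355 nm, em 460 nm. Read-out basis: percent inhibition. Control set: wells without proteasome as full block, compound-free enzyme plus substrate as uninhibited.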
Bfl-1 A1 inh: inhibitors of the anti-apoptotic protein A1, read as caspase activation; MEF A1-2A-BIM cells, Caspase-Glo 3/7 luminescence, 3 h; percent of clofoctol response, vehicle zero; caspase activation, % (no concentration beside the values); hit rate 0.066% among 330,000;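 active = over half of replicate activation scores above 10%, or exactly half above 10 with the replicate mean above 10; inconclusive = replicate mean below 10 yet half the replicates above 10; inactive = over half of replicates below 10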;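 also: wells of about 30 µL received 50 nL stock; many hits fall short of the cut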
* = called active by the depositor.

What do the screens show for `COc1ccc(NC(=O)CN2CCC(NC(=O)c3ccco3)CC2)c([N+](=O)[O-])c1`?
RanGTP-Imp inh: 0.2; T cruzi repl: 3.0; Beta apoptosis: -8.4; Calb FLC: 2.0; LANA-H2A inh: 0.7; B2AR ag: -2.0; UCH37 inh: 3.5; Bfl-1 A1 inh: -1.0

What do the screens show for `Cc1ccc(OCCCCCCN2CCNCC2)cc1`?
RanGTP-Imp inh: 4.4; T cruzi repl: 18.0; Beta apoptosis: -0.5; Calb FLC: -8.6; LANA-H2A inh: 5.8; B2AR ag: 14.9; UCH37 inh: 2.8; Bfl-1 A1 inh: -0.2

What do the screens show for `Cc1ccc2[nH]c3c(=O)n(CC(=O)N4CCN(C)CC4)ncc3c2c1`?
RanGTP-Imp inh: -0.6; T cruzi repl: -24.4; Beta apoptosis: -3.2; Calb FLC: 3.4; LANA-H2A inh: 3.5; B2AR ag: -1.0; UCH37 inh: -20.6; Bfl-1 A1 inh: -0.4

Results for COc1ccc(OC)c(-n2c(C)ccc2-c2ccc(S(C)(=O)=O)cc2)c1 ?
RanGTP-Imp inh: 3.8; T cruzi repl: 9.0; Beta apoptosis: -4.5; Calb FLC: -12.6; LANA-H2A inh: 3.8; B2AR ag: 9.4; UCH37 inh: -56.3; Bfl-1 A1 inh: -0.7

Results for Cc1ccc(N/N=C(\Cc2nc3ccccc3[nH]2)c2ccccc2)cc1 ?
Beta apoptosis: 35.3; LANA-H2A inh: -7.5; B2AR ag: 23.6; Bfl-1 A1 inh: 0.9

What do the screens show for `COc1ccc(/C=C/C(=O)ONC2=NCCCCC2)cc1OC`?
RanGTP-Imp inh: -0.9; T cruzi repl: 6.4; Beta apoptosis: 0.9; Calb FLC: 34.9; LANA-H2A inh: 1.6; B2AR ag: -4.0; Bfl-1 A1 inh: -0.4

What do the screens show for `O=C(Nc1ccn(Cc2ccccc2F)n1)c1ccc(COc2ccccc2Cl)cc1`?
RanGTP-Imp inh: -3.5; T cruzi repl: 23.7; Beta apoptosis: 6.0; Calb FLC: 3.8; LANA-H2A inh: 6.3; B2AR ag: 1.4; UCH37 inh: 1.5; Bfl-1 A1 inh: -0.4

How did Cc1cc(-c2csc(N)n2)c(C)n1Cc1ccccc1 do in these assays?
RanGTP-Imp inh: -2.0; T cruzi repl: 3.8; Beta apoptosis: -8.4; Calb FLC: -0.8; LANA-H2A inh: 0.2; B2AR ag: 6.5; UCH37 inh: -1.1; Bfl-1 A1 inh: -0.2

How did COc1cccc(CCNC(=O)CCc2nnc(Cc3cc(OC)ccc3OC)o2)c1 do in these assays?
RanGTP-Imp inh: 3.0; T cruzi repl: -9.6; Calb FLC: -10.3; LANA-H2A inh: 6.6; B2AR ag: 3.5; UCH37 inh: 0.6; Bfl-1 A1 inh: 0.8

What do the screens show for `Nc1c(Cl)ncnc1N1CCCC1`?
RanGTP-Imp inh: 4.7; T cruzi repl: -18.8; Beta apoptosis: 2.0; Calb FLC: -7.1; LANA-H2A inh: 1.5; B2AR ag: 13.0; UCH37 inh: 1.6; Bfl-1 A1 inh: -0.5

What do the screens show for `COc1ccccc1CNC(=O)CN(C)S(=O)(=O)c1cccc2cccnc12`?
RanGTP-Imp inh: 1.8; T cruzi repl: 1.9; Beta apoptosis: -1.9; Calb FLC: -8.2; LANA-H2A inh: 3.2; B2AR ag: -14.8; UCH37 inh: 1.1; Bfl-1 A1 inh: 1.4

Results for Nc1nonc1-c1nc2ccccc2n1Cc1ccc(F)cc1Cl ?
RanGTP-Imp inh: 2.5; T cruzi repl: -4.5; Beta apoptosis: -30.4; Calb FLC: -5.9; LANA-H2A inh: 5.7; B2AR ag: -1.3; UCH37 inh: 1.6; Bfl-1 A1 inh: 0.5

Results for Cc1noc(NS(=O)(=O)c2ccc(NC(=O)CCC3CCCC3)cc2)c1C ?
RanGTP-Imp inh: -2.3; T cruzi repl: -14.2; Beta apoptosis: 3.0; Calb FLC: -0.2; LANA-H2A inh: -0.5; B2AR ag: -4.3; UCH37 inh: -1.8; Bfl-1 A1 inh: 1.8

How did Nc1nc(SC23CC4CC(CC(C4)C2)C3)ns1 do in these assays?
RanGTP-Imp inh: -0.2; T cruzi repl: 22.5; Beta apoptosis: -4.8; Calb FLC: 3.1; LANA-H2A inh: 6.6; B2AR ag: -0.9; UCH37 inh: 2.8; Bfl-1 A1 inh: -0.5

Results for COCCCNC(=O)CSc1c2c(nc3ccc(Cl)cc13)CCCC2 ?
RanGTP-Imp inh: inconclusive; T cruzi repl: 11.6; Beta apoptosis: -12.3; Calb FLC: 12.1; LANA-H2A inh: 4.3; B2AR ag: -5.3; UCH37 inh: 4.6; Bfl-1 A1 inh: 1.2

What do the screens show for `CCCCP(=O)(CCCC)c1ccccc1C(=O)O`?
RanGTP-Imp inh: -0.6; Beta apoptosis: -5.2; Calb FLC: 0.6; LANA-H2A inh: -1.3; B2AR ag: -2.6; UCH37 inh: -0.9; Bfl-1 A1 inh: 0.7

What do the screens show for `CC(C)(C)c1ccc(/C=C/C(=O)NC2=NCCS2)cc1`?
RanGTP-Imp inh: inconclusive; T cruzi repl: -8.2; Calb FLC: 7.5; LANA-H2A inh: -2.2; B2AR ag: 0.0; UCH37 inh: 6.6; Bfl-1 A1 inh: -4.1

What do the screens show for `Cc1noc(C)c1COc1cccc(C(=O)Nc2ccc(Br)cc2F)c1`?
Beta apoptosis: 6.5; LANA-H2A inh: -0.9; B2AR ag: -4.5; UCH37 inh: 0.5; Bfl-1 A1 inh: -0.2

What do the screens show for `CC(=O)[C@H]1[C@H]([C@H](O)[C@H](O)CO)O[C@](O)(C(=O)O)C[C@@H]1O`?
Beta apoptosis: 1.0; LANA-H2A inh: 10.4; B2AR ag: 6.8; UCH37 inh: -0.3; Bfl-1 A1 inh: 0.9

Results for NNC(=O)c1ccc(COc2ccc3c(c2)CCC3)cc1 ?
RanGTP-Imp inh: 4.0; T cruzi repl: -9.0; Beta apoptosis: -0.3; Calb FLC: -2.1; LANA-H2A inh: 4.7; B2AR ag: 4.5; UCH37 inh: 0.8; Bfl-1 A1 inh: -0.2

How did CCc1ccc(N2CC(C(=O)OCC(=O)Nc3ccc(C(C)=O)cc3)CC2=O)cc1 (stereo not given) do in these assays?
Beta apoptosis: 1.7; LANA-H2A inh: 3.1; B2AR ag: -2.8; UCH37 inh: -0.4; Bfl-1 A1 inh: 0.2

How did CCC(=O)c1cc2c(cc1NC(=O)c1ccc(C)cc1)OCCO2 do in these assays?
RanGTP-Imp inh: 1.2; T cruzi repl: 0.6; Beta apoptosis: 3.4; Calb FLC: 37.9; LANA-H2A inh: 3.3; B2AR ag: 1.9; UCH37 inh: -113.7; Bfl-1 A1 inh: -0.5

Results for Cc1nc2n(COCCO)cnn2c(=O)c1Br ?
RanGTP-Imp inh: -2.7; T cruzi repl: -12.7; Beta apoptosis: -5.8; Calb FLC: 5.9; LANA-H2A inh: -4.0; B2AR ag: 7.7; UCH37 inh: 5.3; Bfl-1 A1 inh: 1.0

What do the screens show for `COc1ccc(NC(=O)c2nc[nH]c2C(=O)N2CCN(c3ccccc3)CC2)cc1`?
RanGTP-Imp inh: 1.2; T cruzi repl: -21.4; Beta apoptosis: 1.1; Calb FLC: 5.7; LANA-H2A inh: 2.7; B2AR ag: -1.3; UCH37 inh: -0.9; Bfl-1 A1 inh: -0.3

Results for O=C(c1ccc(Cl)cc1[N+](=O)[O-])N1CCN(c2ccccn2)CC1 ?
RanGTP-Imp inh: -4.3; T cruzi repl: -3.1; Beta apoptosis: -1.8; Calb FLC: 0.5; LANA-H2A inh: -1.4; B2AR ag: -5.5; UCH37 inh: 4.3; Bfl-1 A1 inh: 0.0

How did Cc1ccsc1C(=O)OCc1nc2ccsc2c(=O)[nH]1 do in these assays?
RanGTP-Imp inh: -0.5; T cruzi repl: -10.6; Beta apoptosis: 2.0; Calb FLC: 3.2; LANA-H2A inh: 1.1; B2AR ag: -4.4; UCH37 inh: 0.7; Bfl-1 A1 inh: -2.1

What do the screens show for `COc1ccc2c(CC(=O)OCC(=O)Nc3ccc(S(N)(=O)=O)cc3)coc2c1`?
RanGTP-Imp inh: 0.6; T cruzi repl: -11.7; Beta apoptosis: -0.3; Calb FLC: -14.9; LANA-H2A inh: 1.9; B2AR ag: 6.9; UCH37 inh: -2.7; Bfl-1 A1 inh: 0.2

How did CC(=O)n1nc(-c2ccc(C)cc2)nc1NCc1ccco1 do in these assays?
RanGTP-Imp inh: -0.6; T cruzi repl: 8.2; Calb FLC: -3.8; B2AR ag: -6.6; UCH37 inh: 0.2

Results for COc1ccc(OCc2cc(C(=O)NC3CCOCC3)no2)c2ccccc12 ?
RanGTP-Imp inh: -1.1; T cruzi repl: -10.0; Beta apoptosis: 2.8; Calb FLC: 31.4; LANA-H2A inh: -3.7; B2AR ag: 22.3; UCH37 inh: 24.3*; Bfl-1 A1 inh: -0.8

Results for COc1ccccc1N(C)S(=O)(=O)c1ccc(C(=O)OCC(=O)N2CCC2)cc1 ?
RanGTP-Imp inh: 1.9; T cruzi repl: -17.4; Beta apoptosis: -3.8; Calb FLC: -7.0; LANA-H2A inh: -0.6; B2AR ag: 1.3; UCH37 inh: 2.1; Bfl-1 A1 inh: 0.0

Results for Cc1ccc(C(=O)CSc2nc3ccccc3c(=O)[nH]2)cc1C ?
RanGTP-Imp inh: 2.5; T cruzi repl: -3.4; Beta apoptosis: -1.4; Calb FLC: 8.5; LANA-H2A inh: -4.6; B2AR ag: 1.2; UCH37 inh: 0.6; Bfl-1 A1 inh: -0.2

How did CCOc1cc(/C=N/NC(=O)C(C)Sc2ccccc2)ccc1O (stereo not given) do in these assays?
RanGTP-Imp inh: 0.4; T cruzi repl: -14.1; Beta apoptosis: -3.5; Calb FLC: -9.1; LANA-H2A inh: -0.7; B2AR ag: -1.4; Bfl-1 A1 inh: 1.1

Results for Cc1ccc2[nH]c(=O)c(CN(CC3CCCO3)C(=S)Nc3ccccc3)cc2c1 (stereo not given) ?
RanGTP-Imp inh: -0.6; T cruzi repl: 1.6; Beta apoptosis: -0.1; Calb FLC: -5.5; LANA-H2A inh: 0.6; B2AR ag: -1.5; UCH37 inh: -2.1; Bfl-1 A1 inh: 0.5

What do the screens show for `C=CCN(c1ccccc1)S(=O)(=O)c1cccc(C(=O)Nc2ncccc2C)c1`?
RanGTP-Imp inh: 6.0; T cruzi repl: 5.1; Beta apoptosis: -8.2; Calb FLC: 5.7; LANA-H2A inh: 0.8; B2AR ag: -7.7; UCH37 inh: 0.2; Bfl-1 A1 inh: 0.2

What do the screens show for `CC(=O)Nc1ccc(Nc2cc(C(C)C)nc3c(-c4ccccc4)c(C)nn23)cc1`?
RanGTP-Imp inh: -2.8; T cruzi repl: 67.6*; Calb FLC: 10.7; LANA-H2A inh: -12.2; B2AR ag: 51.9*; UCH37 inh: -198.8; Bfl-1 A1 inh: -0.7

Results for COc1ccccc1N1CCN(CC(=O)NCC2CCCO2)CC1 (stereo not given) ?
RanGTP-Imp inh: -0.1; Beta apoptosis: -0.3; Calb FLC: -4.3; LANA-H2A inh: -3.2; B2AR ag: 7.3; UCH37 inh: -2.0; Bfl-1 A1 inh: 0.7
